Bioassay records deposited in PubChem BioAssay by National Center for Advancing Translational Sciences (NCATS).
TSHR agonist: TSH receptor (human) agonism; 73,000 compounds, 0.48% hits; Potency, µM (series often up to 57.1 µM), without a hit: top-dose activation, usual class: activators; AID 926; P16473; HEK293-CNG-TSHR cells (CNG channel as cAMP sensor), membrane potential dye, cAMP; active = well fitted activation curve of enough size with the parental cells flat; inconclusive = any curve in the parental cells; inactive = parental cells flat and receptor cells flat or falling; further: potency means the concentration at half of the fitted maximal effect; % of control where 0% means no effect; weak receptor curves with flat parental cells got no call and are not listed
Target sequence (P16473 whole entry, looked up): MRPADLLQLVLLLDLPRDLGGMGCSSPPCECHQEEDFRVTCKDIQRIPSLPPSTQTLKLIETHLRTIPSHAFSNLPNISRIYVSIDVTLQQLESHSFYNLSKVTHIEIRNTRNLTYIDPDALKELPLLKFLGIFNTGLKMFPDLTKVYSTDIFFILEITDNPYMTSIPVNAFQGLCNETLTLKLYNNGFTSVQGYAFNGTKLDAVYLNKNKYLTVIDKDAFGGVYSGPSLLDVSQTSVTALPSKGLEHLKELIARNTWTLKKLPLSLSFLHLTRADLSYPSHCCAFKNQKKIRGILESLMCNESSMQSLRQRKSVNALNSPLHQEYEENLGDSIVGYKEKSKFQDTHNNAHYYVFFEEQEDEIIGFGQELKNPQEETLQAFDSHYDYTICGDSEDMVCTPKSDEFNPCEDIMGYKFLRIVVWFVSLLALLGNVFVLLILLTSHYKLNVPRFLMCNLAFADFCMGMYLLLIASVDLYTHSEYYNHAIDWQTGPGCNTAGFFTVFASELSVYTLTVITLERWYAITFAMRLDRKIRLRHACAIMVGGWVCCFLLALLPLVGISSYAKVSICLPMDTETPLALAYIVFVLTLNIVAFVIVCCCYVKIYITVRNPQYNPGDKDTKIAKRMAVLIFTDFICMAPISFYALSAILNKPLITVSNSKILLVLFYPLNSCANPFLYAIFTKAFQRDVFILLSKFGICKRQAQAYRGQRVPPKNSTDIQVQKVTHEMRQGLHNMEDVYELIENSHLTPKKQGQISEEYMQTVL
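HEK 293 cells stably expressing TSHR and a modified CNG channel, with CNG-only parental cells as counterscreen, were preloaded 60 min at room temperature with membrane potential dye containing 100 uM RO 20-1724. Compound exposure was 30 min, and depolarization was read as fluorescence at 590 nm.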
A647 autofl: compound autofluorescence in A647 spectral region; Compound fluorescence, A647 channel (570/671 nm), Tris buffer; max dye-equivalent concentration, M; 59,000 tested, under 10 active; AID 592; active means above 1 µM dye equivalent; inconclusive means 0.1 to 1 µM; inactive means 0.1 µM or less;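 further: values scaled relative to a standard on each plate; highest value over a series up to 38 µM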
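Buffer was dispensed, compounds and Alexa 647 standards were pin-transferred, and plates sat 15 min at room temperature. Intensity at 570/671 nm was then converted to dye-equivalent concentration using the plate's A647 standard curve.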
AID923: qHTS Assay for Allosteric/Competitive Inhibitors of Caspase-1: Spectroscopic Profiling in AFC Spectral Region; 75,000 compounds, 1.1% hits; compound fluorescence, AFC spectral region (405/520 nm); almost no hit is shown here; AID 923, 2007; Potency, µM (top dose mostly 57.5 µM), for the others: top-dose fluorescence increase, most hits filed as activators; active means well fitted activation curve with a large enough effect; inconclusive means small, poorly fitted or top-dose-only effect;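 further: potency means the concentration at half of the fitted maximal effect; 0% is about no effect; scaled to a free AFC standard on each plate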
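Titrations up to 57 uM read every 20 sec for 3 min (405/520 nm) with 50 nM caspase 1 and 5 uM Ac-WEHD-AFC, pH 7.5 HEPES buffer. Fluorescence-vs-time intercept gave baseline, scaled against on-plate AFC standard.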
A488 fluor: A488 region autofluorescence; compound autofluorescence, A488 spectral region, dye equivalency; stronger effect = higher value; max dye equivalency, M; 59,000 compounds, 0.1% hits; active = above 10 nM dye equivalent; inconclusive = 1 to 10 nM; inactive = 1 nM or less; about half of its hits are not listed in these tables;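 further: highest value over a series up to 38 µM; compound alone in buffer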
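Readout is A488 dye-equivalent concentration, calibrated by a per-plate six-point Alexa 488 series. Compounds in 100 mM Tris buffer pH 8.0 were incubated 15 min at room temperature. Plates were imaged using 480 nm excitation/540 nm emission filters.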
Resorufin fluor: compound fluoresces in the resorufin spectral region; max dye-equivalent concentration, M; 59,000 compounds, 0.04% hits; Compound fluorescence, resorufin region 547/598 nm, buffer; stronger effect = higher value; AID 588; active = above 10 nM dye equivalent; inconclusive = 1 to 10 nM; inactive = 1 nM or less; a few of its hits are not listed in these tables; further: highest value over a series up to 38 µM
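Dye-equivalent concentration values derive from comparing each well's 547/598 nm fluorescence against resorufin standards included on every plate. Incubation was 15 min at room temperature in 100 mM Tris, pH 8.0.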
* hit, by the source's call; i = inactive; ? = inconclusive; nt = not tested or not shown; & = joins results of further samples; [ ] = dose if it differs, or a comment. Not all compounds are listed; the hit share may differ from the screen's.

Preview (four entries):
item | mol | TSHR agonist | A647 autofl | AID923 | A488 fluor | Resorufin fluor
1 | Cc1cccc(N(C2C=CS(=O)(=O)C2)S(=O)(=O)c2ccccc2)c1 (stereo not drawn) | 21% | 3.8e-08 | -1.0% | i | i
2 | CCc1ccc(O)c(N=Cc2ccccc2O)c1 | -4% | nt | 0.3% | nt | nt
3 | Cc1cc(-c2nn3c(C)nnc3s2)ccc1NC(=O)C(C)(C)C | 0% | 1e-09 | 0.3% | i | i
4 | CCSc1ncc(Cl)c(C(=O)N(Cc2ccc(N(C)C)cc2)C2CCS(=O)(=O)C2)n1 (stereo not drawn) | nt | 1.7e-09 | 4.0% | i | i

Results, previewed entries included:
item | mol | TSHR agonist | A647 autofl | AID923 | A488 fluor | Resorufin fluor
1 | Cc1cccc(N(C2C=CS(=O)(=O)C2)S(=O)(=O)c2ccccc2)c1 (stereo not drawn) | 21% | 3.8e-08 | -1.0% | i | i
2 | CCc1ccc(O)c(N=Cc2ccccc2O)c1 | -4% | nt | 0.3% | nt | nt
3 | Cc1cc(-c2nn3c(C)nnc3s2)ccc1NC(=O)C(C)(C)C | 0% | 1e-09 | 0.3% | i | i
4 | CCSc1ncc(Cl)c(C(=O)N(Cc2ccc(N(C)C)cc2)C2CCS(=O)(=O)C2)n1 (stereo not drawn) | nt | 1.7e-09 | 4.0% | i | i
5 | O=C(c1cc(-c2cccc(O)c2)on1)N1CCOCC1 | -5% | nt | -1.5% | nt | nt
6 | Cc1ccc(C(CC(=O)O)Nc2nc(N3CCCCC3)nc(N3CCCCC3)n2)cc1 (stereo not drawn) | nt | 1.7e-08 | -0.7% | i | i
7 | O=C1c2ccccc2C(=O)N1CCc1nn[nH]n1 | ? | 3.4e-08 | 0.0% | i | i
8 | CC(c1ccccc1)N1CNc2c(c(=O)n(C)c(=O)n2C)C1 (stereo not drawn) | 3% | nt | 0.1% | nt | nt
9 | C=CCn1c(=O)c2ccccc2n2c(SCc3cc(=O)n4ccsc4n3)nnc12 | 7% | 1e-08 | 0.2% | i | i
10 | COc1ccc(-c2noc(-c3ccc(Br)o3)n2)cc1OC | ? | 3.2e-08 | -1.8% | i | i
11 | OC(COc1cccc2ccccc12)CN1CCN(c2ccccn2)CC1 (stereo not drawn) | ? | 3.5e-08 | -0.2% | i | i
12 | COc1ccc(C(=O)N(CN2CCCC2=O)c2nccs2)cc1OC | 5% | 9.9e-09 | -2.0% | i | i
13 | Cc1noc(C)c1S(=O)(=O)Nc1c(C)n(C)n(-c2ccccc2)c1=O | 0% | 1e-09 | -0.8% | i | i
14 | COc1ccc(-c2nnc(SCC(=O)N3CCCC(C)C3)o2)c(OC)c1 (stereo not drawn) | 7% | 5.3e-08 | 1.6% | i | i
15 | CCn1c(=O)cc(OCC(=O)Nc2cccnc2)c2ccccc21 | -5%[11.4 µM] | 1e-09 | -1.6% | i | i
16 | CC(C)c1ccc(C2CC(=O)N3CN(Cc4ccco4)CSC3=C2C#N)cc1 (stereo not drawn) | 6% | 1e-09 | -2.5% | i | i
17 | CCC(c1nnnn1CCc1ccccc1)N(Cc1ccco1)Cc1cc2cc(C)cc(C)c2[nH]c1=O (stereo not drawn) | ? | 1.8e-08 | 13% | i | i
18 | CC(=O)N1c2c(cc(Br)cc2S(=O)(=O)NCc2cccnc2)CC1C (stereo not drawn) | 3%[11.4 µM] | 1.2e-08 | 0.8% | i | i
19 | Brc1cnc(N2CCOCC2)nc1N1CCCCC1 | nt | 1e-09 | 0.8% | i | i
20 | O=C(COc1ccc(C(=S)N2CCOCC2)cc1)N1CCCC1 | 2% | 4.4e-08 | -0.7% | i | i
21 | COc1ccccc1N1CCN(c2nc3ccccc3n3nnnc23)CC1 | 6% | 4.2e-08 | 7.5% | i | i
22 | COc1ccc(N2CC(C)Cn3c2nc2c3c(=O)[nH]c(=O)n2C)cc1 (stereo not drawn) | -6% | 1.4e-09 | 0.0% | i | i
23 | Cn1c(Cn2c(=O)sc3ccccc32)nnc1SCC(=O)Nc1ccccc1 | 3% | nt | -2.3% | nt | nt
24 | CC(C)C1Cc2c(sc3c2c(=O)n(Cc2ccccc2)c2nncn32)CO1 (stereo not drawn) | nt | 1.4e-09 | nt | i | i
25 | CCOc1ccc(-n2c(SCC(=O)Nc3cc(C)on3)nc3c([nH]c4ccccc43)c2=O)cc1 | 11% | nt | 2.5% | nt | nt
26 | O=C(O)c1cccnc1SC1CC(=O)N(c2cccc(C(F)(F)F)c2)C1=O (stereo not drawn) | ? | nt | 2.8% | nt | nt
27 | CNC(=O)Nc1ccccc1NC(=O)NC | -1% | 1e-09 | 1.6% | i | i
28 | COCCOC(=O)c1[nH]c2c(c1C)C(=O)CC(c1ccc(F)cc1)C2 (stereo not drawn) | 0% | nt | 1.3% | nt | nt
29 | COCCn1c(SCC(=O)Nc2sc(C)c(C)c2C#N)nnc1-c1ccc(OC)cc1 | 30% | 7e-09 | 0.4% | i | i
30 | COc1ccccc1NC(=O)C1=C(C)Nc2nc(-c3cccs3)nn2C1c1cccnc1 (stereo not drawn) | -12% | nt | 3.5% | nt | nt
31 | COCCOc1ccc(C(F)(F)F)cc1NC(=O)COC(=O)c1c(C)noc1C | 9% | 2.3e-08 | -0.7% | i | i
32 | Cc1ccc(-c2nc(C#N)c(NCc3cccc4c3OCO4)o2)cc1 | ? | 1.8e-08 | -0.5% | i | i
33 | COc1ccc(C(=O)c2c[nH]c3ccccc23)cc1 | 1%[11.4 µM] | nt | -0.1% | nt | nt
34 | COCCCNC(=O)CSc1ccc(Cl)cc1 | 5%[11.4 µM] | nt | -0.1% | nt | nt
35 | CC(=O)c1cc(OC(=O)N2CCOCC2)ccc1OC(=O)N1CCOCC1 | -4% | 1e-09 | -1.8% | i | i
36 | CC1CN(c2nc3c(c(=O)[nH]c(=O)n3C)n2Cc2ccccc2F)CC(C)O1 (stereo not drawn) | 1% | 2.7e-08 | 0.1% | i | i
37 | O=C(NCC(=O)N(c1ccccc1F)C(C(=O)NCC1CCCO1)c1ccccc1)c1ccco1 (stereo not drawn) | -5% | 1.7e-09 | -0.9% | i | i
38 | Clc1ccc(C2=Nn3c(nnc3-c3n[nH]c4c3CCC4)SC2)cc1Cl | ? | 1e-09 | -2.2% | i | i
39 | CC(C)c1cc(Nc2cccc(O)c2)cc(C(C)C)c1O | 11% | nt | 0.5% | nt | nt
40 | CC(=O)Nc1ccc(S(=O)(=O)N2CCN(CCC#N)CC2)cc1 | -12% | nt | 1.9% | nt | nt
41 | CCCC(c1nnnn1CS(=O)(=O)c1ccc(C)cc1)N1CCN(c2ccccc2)CC1 (stereo not drawn) | 29% | 2.3e-09 | 0.6% | i | i
42 | CC(NC(=O)Cn1cnc2c1c(=O)n(C)c(=O)n2C)c1ccccc1 (stereo not drawn) | -2% | nt | 0.5% | nt | nt
43 | Cc1c(C(=O)NCc2cccnc2)oc2ccc(S(=O)(=O)N3CCCC(C)C3)cc12 (stereo not drawn) | ? | 4.7e-09 | 0.4% | i | i
44 | COC(=O)c1ccccc1NC(=O)c1cc(-c2ccc(OC)c(OC)c2)on1 | 3%[11.4 µM] | 1e-09 | -1.8% | i | i
45 | Cc1noc(C)c1CSc1nnc2scc(-c3ccc(Cl)cc3)n12 | ? | 4.3e-09 | -0.8% | i | i
46 | C=CCc1cccc2cc(C(=O)N(CC)CC)c(=O)oc12 | 7% | nt | -0.4% | nt | nt
47 | COc1ccc2[nH]cc(CCNc3nc(-c4c(C)noc4C)nc4ccccc34)c2c1 | ? | 1e-09 | 4.4% | i | i
48 | CCOC(=O)c1cc(CC)sc1NC(=O)C1CC1 | nt | 9.9e-09 | nt | i | i
49 | CCOc1ccc(-c2nnn(CCC(=O)O)n2)cc1OC | 16% | 6.4e-08 | 3.3% | i | i
50 | Cn1cccc1C(=O)N1CCC2(CCCN(c3ccccn3)C2)CC1 | ? | 1e-09 | 2.8% | i | i
51 | c1ccc(CSc2nnc(-c3ccco3)c(-c3ccco3)n2)cc1 | 26% | 1e-08 | 5.3% | i | i
52 | COc1ccc(S(=O)(=O)C(C#N)c2nc3ccccc3nc2N2CCC(C)CC2)cc1 (stereo not drawn) | -4% | 1.3e-08 | 16% | i | i
53 | COc1ccc(CN2CCCCCC2)c(C)c1C | nt | 3.1e-08 | 1.3% | i | i
54 | CCS(=O)(=O)NCC(c1cccnc1)N1CCN(c2ccccc2OC)CC1 (stereo not drawn) | 4% | nt | 2.7% | nt | nt
55 | O=C(CCC1CCCCC1)Nc1c[nH]c(=O)[nH]c1=O | 3% | 8.2e-09 | 0.6% | i | i
56 | CC(C)c1ccccc1S(=O)(=O)c1cc(N)c2ncccc2c1[N+](=O)[O-] | ? | nt | -1.9% | nt | nt
57 | Cc1nc2oc3c(NCC4CCCO4)ncnc3c2c2c1COC(C)(C)C2 (stereo not drawn) | -5% | 1.1e-08 | 0.7% | i | i
58 | Cc1cc(-c2ccco2)n(CC(=O)NCCN(C)C)n1 | 7% | nt | 0.3% | nt | nt
59 | COc1ccc2[nH]cc(CCNc3ncncc3-c3ccoc3)c2c1 | ? | 1.6e-08 | 2.4% | i | i
60 | O=C(CCn1c(=O)oc2ccccc21)N1CCN(c2ccccc2F)CC1 | 4% | 1.1e-08 | -1.5% | i | i

New compounds follow
item | mol | TSHR agonist | A647 autofl | AID923 | A488 fluor | Resorufin fluor
61 | CCCCNc1cc(C(=O)O)cc(S(N)(=O)=O)c1Oc1ccccc1 | ? | 1e-09&1e-09&1.5e-08 | -2.9% | i | i
62 | COc1ccc(OC)c(NC(=O)CCN2CCCC(C)C2)c1 (stereo not drawn) | -2% | 5.5e-09 | 3.2% | i | i
63 | O=C(CSc1nnnn1-c1ccccc1)Nc1nsc(-c2ccc(Cl)cc2)n1 | ? | 1e-09 | -1.6% | i | i
64 | CCCCS(=O)(=O)N1CN(S(=O)(=O)CCCC)C2NC(=O)NC21 (stereo not drawn) | 2% | 1.3e-08 | 0.6% | i | i
65 | CCOC(=O)C1CCN(C(=O)c2cc(S(=O)(=O)N3CCOCC3)c(Cl)cc2Cl)CC1 | ? | 1e-09 | 0.6% | i | i
66 | COc1ccccc1-c1nc(C(N)=O)c2[nH]c(=O)n(-c3cccc(C)c3)c2n1 | nt | 1e-09 | -1.4% | i | i
67 | COc1cc(CSc2ncn[nH]2)c(OC)cc1CSc1ncn[nH]1 | 4% | 4.7e-08 | 0.0% | i | i
68 | O=C1C2=CC[C@H]3C(=O)N(C4CCCCC4)C(=O)[C@@H]3[C@@H]2[C@H](O)[C@@H]2O[C@H]12 | 5%[11.4 µM] | nt | 4.1%[11.5 µM] | nt | nt
69 | COc1cccc(OC)c1OCC(O)CN1CCN(c2ccccc2)CC1 (stereo not drawn) | 1%[11.4 µM] | 1.9e-08 | -0.1% | i | i
70 | Cc1occc1-c1nnc(SCC(=O)c2ccc(Cl)cc2)n1C | 13% | 2.4e-09 | 1.4% | i | i
71 | N#Cc1nc(COc2cccc(Cl)c2)oc1NCc1ccncc1 | -4% | 1e-09 | 1.1% | i | i
72 | CC(C)C(c1nnnn1Cc1ccccc1)N1CCN(Cc2ccc3c(c2)OCO3)CC1 (stereo not drawn) | 0% | 1e-09 | -0.8% | i | i
73 | COc1ccc(N2CCN(C(=O)CSc3ncnc4c3cnn4-c3ccc(OC)cc3)CC2)cc1 | -1% | 1e-09 | 3.5% | i | i
74 | Cc1ccc(NC(=O)COC(=O)c2ccc3c(c2)NC(=O)C2CCCN32)cc1 (stereo not drawn) | 1%[11.4 µM] | 8e-09 | 6.4% | i | i
75 | CCOC(=O)C1CCN(Cc2coc3ccc(Cl)cc3c2=O)CC1 | 2% | 5.8e-08 | -1.0% | i | i
